Bioassay records from PubChem.
FGF22 binding: binders of recombinant human FGF22 by thermal shift; Q9HCT0; SYPRO orange fluorescence; percent of sucrose octasulfate shift, DMSO zero; calls only at 9.99 µM; hit rate 1.5% among 340,000; AID 651658;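 active means melting point raised past a set limit in the mean and every replicate; inconclusive means no clear call; three in four hits are not shown here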
Target sequence (Q9HCT0 whole entry, looked up): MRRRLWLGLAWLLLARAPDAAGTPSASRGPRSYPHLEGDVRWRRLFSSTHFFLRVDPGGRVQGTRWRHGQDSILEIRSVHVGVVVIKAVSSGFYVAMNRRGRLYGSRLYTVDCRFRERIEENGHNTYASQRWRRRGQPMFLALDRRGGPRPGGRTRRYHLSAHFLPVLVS
rRNA inh HTS: selective bacterial rRNA inhibition in E. coli | GFP signal change (wild-type ribosome), % (test concentration not listed) | AID 720706 | E. coli WT GFP vs humanized-ribosome RFP mutants, fluorescence, 24 h; active compounds read low; DMSO median 0, no signal -100 | hit rate 1.6% among 350,000;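 active means significant combined selectivity score with lowered wild-type GFP, culture density cut under 30%, mutant RFP and density less affected; inactive means any of these conditions unmet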; further: one replicate is shown; some compounds called inactive have numbers as strong as hits
MLL AF4-AF9 inh: blocks AF4 peptide binding to human AF9; P42568; AlphaScreen, biotin-AF4 peptide binding to FLAG-AF9; hit rate 0.47% among 350,000; AID 651704; inhibition, % at 10 µM;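 active means every replicate reaching a set inhibition limit, whatever the replicate mean, cut at about 25% in these data; inconclusive means mean inhibition reaches that limit but some replicates miss it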;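 further: 0% = plate neutral control median and 100% = total signal loss; the record names both 10 and 1 µM as test concentration; the first replicate is given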
Target sequence (P42568 whole entry, looked up): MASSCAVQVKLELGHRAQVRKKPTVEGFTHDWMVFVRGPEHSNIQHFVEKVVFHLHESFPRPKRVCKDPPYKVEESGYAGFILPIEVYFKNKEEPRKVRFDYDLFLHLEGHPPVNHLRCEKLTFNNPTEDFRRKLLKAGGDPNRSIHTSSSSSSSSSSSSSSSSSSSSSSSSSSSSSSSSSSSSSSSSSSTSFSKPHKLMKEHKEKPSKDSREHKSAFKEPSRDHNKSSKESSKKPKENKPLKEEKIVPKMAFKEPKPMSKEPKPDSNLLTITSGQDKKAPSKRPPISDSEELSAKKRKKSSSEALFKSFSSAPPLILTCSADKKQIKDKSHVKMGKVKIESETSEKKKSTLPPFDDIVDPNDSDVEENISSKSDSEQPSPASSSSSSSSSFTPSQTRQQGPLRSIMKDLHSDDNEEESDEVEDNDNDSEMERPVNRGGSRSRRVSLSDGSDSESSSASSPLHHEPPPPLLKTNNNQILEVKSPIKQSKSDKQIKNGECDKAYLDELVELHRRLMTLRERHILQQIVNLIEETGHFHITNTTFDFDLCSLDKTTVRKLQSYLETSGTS
rRNA inh HTS OD600: second read-out of rRNA inh HTS, no call of its own (marks repeat the call); OD600 change, %; measured here: OD600 growth;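 optical density of the mix in the first replicate; 0 = DMSO median and -100 = no signal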
rRNA inh HTS RFP: also measured in rRNA inh HTS; calls as there; RFP signal change, %; measured here: RFP humanized mutant strains;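 first replicate; 0 = DMSO median and -100 = no signal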
Active calls of the source: *; i = inactive; ? = inconclusive.

SMILES | FGF22 binding | rRNA inh HTS | rRNA inh HTS OD600 | rRNA inh HTS RFP | MLL AF4-AF9 inh
O=C(O)CNc1nc(NCc2ccc(Cl)cc2)ccc1[N+](=O)[O-] | i | 3 | -8 | 54 | 1.2
CC(OC(=O)c1cc(=O)c2ccccc2o1)C(=O)Nc1ccc(N(C)C)cc1 (stereo not given) | i | 1 | 5 | -3.0 | 0.2
COc1ccc(NC(=O)Nc2cccc3c2O[C@@H](CN(C)S(=O)(=O)c2ccc(Cl)cc2)[C@H](C)CN([C@@H](C)CO)C3=O)cc1 | i | -2 | -7 | -2.0 | 0.8
Cc1ccc(-c2ccc3c(c2)O[C@@H](CN(C)C(=O)CN(C)C)[C@@H](C)CN([C@H](C)CO)S3(=O)=O)cc1 | i | 2 | -9 | 1.7 | 7.8
CO[C@@H]1CC[C@@H]2CCN(C)C(=O)CCCN(C)C(=O)c3cc(C#N)ccc3OC[C@H]1O2 | i | -4 | 7 | -1.3 | -1.3
COC(=O)[C@]12CCCCC=C1N(CCc1ccc(OC)c(OC)c1)C(=O)[C@H](CC(=O)N1CCSCC1)C2 | i | -16 | -11 | 1.5 | 4.2
Cc1noc(C)c1NC(=O)N(C)C[C@@H]1Oc2c(NS(=O)(=O)c3ccc(Cl)cc3)cccc2C(=O)N([C@@H](C)CO)C[C@@H]1C | i | 1 | -7 | -2.4 | -2.2
C[C@@H]1CN([C@@H](C)CO)C(=O)c2cc(Br)cnc2O[C@H]1CN(C)C(=O)c1ccccc1 | i | 8 | 14 | -4.2 | -0.8
O=C(C[C@@H]1C=C[C@@H](NC(=O)Cc2cccnc2)[C@H](CO)O1)Nc1ccccc1 | i | 0 | 7 | -0.6 | -0.9
C[C@@H]1CN([C@H](C)CO)C(=O)c2cc(NC(=O)Nc3ccccc3)ccc2O[C@@H](C)CCCCO[C@H]1CN(C)C(=O)C1CCCCC1 | i | 0 | -1 | 2.8 | 1.0
C[C@H]1CN([C@@H](C)CO)S(=O)(=O)c2ccc(C#CC3CCCC3)cc2O[C@@H]1CN(C)S(C)(=O)=O | i | -11 | -44 | 16 | 7.2
CCOC(=O)c1ccc(N=Cc2cnc(N)nc2N)cc1 | i | 8 | 9 | -3.5 | -2.1
COc1ccc(CN(C)C[C@@H]2OCCCC[C@H](C)Oc3ccc(NC(=O)CCC(F)(F)F)cc3C(=O)N([C@H](C)CO)C[C@@H]2C)cc1 | i | 2 | 18 | -1.5 | 2.7
C[C@H](CO)N1C[C@H](C)[C@@H](CN(C)C(=O)Nc2cccc3ccccc23)OCCCC[C@H](C)Oc2ccc(NC(=O)Cc3ccccc3)cc2C1=O | i | -1 | 6 | -1.6 | 3.9
C[C@@H]1CN([C@H](C)CO)C(=O)c2ccccc2-c2ccccc2CO[C@H]1CN(C)S(=O)(=O)c1cn(C)cn1 | i | 0 | 5 | -0.5 | 5.5
C[C@@H]1CN(Cc2nnnn2CC(=O)NCCCn2cccn2)C[C@H](C)O1 | i | 16 | 27 | 1.5 | -5.2
COc1ccc(S(=O)(=O)N(C)C[C@H]2OCCCC[C@@H](C)Oc3ccc(NS(=O)(=O)c4ccccc4)cc3C(=O)N([C@H](C)CO)C[C@H]2C)cc1 | i | 0 | 3 | 3.8 | 1.8
COc1ccc(CN(C)C[C@H]2Oc3c(NC(=O)CCCCCC(=O)Nc4ccccc4N)cccc3C(=O)N([C@@H](C)CO)C[C@@H]2C)cc1 | i | -3 | -6 | 1.3 | -0.6
CC(C)c1ccc(NC(=O)C2=CC=CN3CCS(=O)(=O)N=C23)cc1 | i | 5 | 3 | -4.0 | -0.2
C[C@@H]1CCCCO[C@@H](CN(C)C)[C@@H](C)CN([C@H](C)CO)C(=O)c2cc(NC(=O)NC3CCCCC3)ccc2O1 | i | 4 | 12 | -1.2 | -0.7
CN(CCc1ccccc1)C(=O)c1ccc(NC(=O)Cc2ccc(NC(=O)C3CCN(C(=O)C4CC4)CC3)cc2)cc1 | i | 0 | -2 | -4.5 | ?
Cc1ccc(S(=O)(=O)N[C@@H]2CC[C@@H](CCn3cc(C4CCCC4)nn3)O[C@@H]2CO)cc1 | i | -2 | -9 | 0.4 | -13
C/C=C/c1ccc2c(c1)O[C@@H](CN(C)C(=O)Nc1ccccc1)[C@H](C)CN([C@H](C)CO)S2(=O)=O | i | -3 | -14 | 0.6 | 2.0
O=C(Nc1ccccc1)N1c2ccccc2SC1c1ccco1 (stereo not given) | i | 1 | 18 | 0.8 | -8.2
C[C@@H]1CN([C@H](C)CO)C(=O)c2cccc(NC(=O)c3cnccn3)c2O[C@H]1CN(C)C(=O)Nc1cccc2ccccc12 | i | 1 | 4 | 0.6 | -1.2
C[C@@H]1CN([C@@H](C)CO)C(=O)c2cc(NC(=O)CCCN(C)C)ccc2O[C@@H]1CN(C)Cc1ccncc1 | i | 2 | 1 | -2.3 | -5.8
O=C(Cc1ccncc1)N1CC(=O)N2[C@H](CO)[C@H](c3ccc(-c4cccc(F)c4)cc3)[C@@H]2C1 | i | -3 | 1 | 8.3 | 1.5
C[C@H]1CN([C@@H](C)CO)C(=O)c2cccc(NS(=O)(=O)c3ccc(F)cc3)c2O[C@H]1CN(C)Cc1ccc(C(=O)O)cc1 | i | 8 | 12 | 0.9 | -1.5
CCC(=O)N[C@@H]1CC[C@H](CC(=O)NCc2ccccc2F)O[C@@H]1CO | i | 1 | 3 | -1.9 | -2.5
CN(C)CCCNC(=O)C[C@H]1C=C[C@@H](NC(=O)Cc2cccnc2)[C@@H](CO)O1 | i | 1 | 2 | 0.2 | -1.2

Taken from above:
Under rRNA inh HTS, Cc1noc(C)c1NC(=O)N(C)C[C@@H]1Oc2c(NS(=O)(=O)c3ccc(Cl)cc3)cccc2C(=O)N([C@@H](C)CO)C[C@@H]1C reads 1
Under rRNA inh HTS OD600, CC(OC(=O)c1cc(=O)c2ccccc2o1)C(=O)Nc1ccc(N(C)C)cc1 (stereo not given) reads 5
Under rRNA inh HTS, O=C(Nc1ccccc1)N1c2ccccc2SC1c1ccco1 (stereo not given) reads 1
Under rRNA inh HTS OD600, C[C@@H]1CN([C@H](C)CO)C(=O)c2cccc(NC(=O)c3cnccn3)c2O[C@H]1CN(C)C(=O)Nc1cccc2ccccc12 reads 4
Under rRNA inh HTS, C[C@@H]1CN([C@@H](C)CO)C(=O)c2cc(Br)cnc2O[C@H]1CN(C)C(=O)c1ccccc1 reads 8

Reformatted: entries from further up
Value order – FGF22 binding	rRNA inh HTS	rRNA inh HTS OD600	rRNA inh HTS RFP	MLL AF4-AF9 inh
> C/C=C/c1ccc2c(c1)O[C@@H](CN(C)C(=O)Nc1ccccc1)[C@H](C)CN([C@H](C)CO)S2(=O)=O
→ i	-3	-14	0.6	2.0
> O=C(Nc1ccccc1)N1c2ccccc2SC1c1ccco1 (stereo not given)
→ i	1	18	0.8	-8.2
> C[C@@H]1CN([C@H](C)CO)C(=O)c2cccc(NC(=O)c3cnccn3)c2O[C@H]1CN(C)C(=O)Nc1cccc2ccccc12
→ i	1	4	0.6	-1.2
> C[C@@H]1CN([C@@H](C)CO)C(=O)c2cc(NC(=O)CCCN(C)C)ccc2O[C@@H]1CN(C)Cc1ccncc1
→ i	2	1	-2.3	-5.8

Later entries.
SMILES | FGF22 binding | rRNA inh HTS | rRNA inh HTS OD600 | rRNA inh HTS RFP | MLL AF4-AF9 inh
Cc1cc(Cl)ccc1C(O)c1ncc(-c2ccc3ccccc3c2)[nH]1 (stereo not given) | i | -30 | -68 | -4.8 | -0.2
CC1(C(=O)Nc2ccc3c(c2)OCCO3)CCN1Cc1csc2ccccc12 (stereo not given) | i | -54 | -78 | -15 | 0.0
Cn1cnc(CCNC(=O)[C@@H]2[C@@H](CO)[C@@H]3Cn4c(cccc4=O)[C@@H]3N2C(=O)Nc2ccccc2)c1 | i | 0 | 6 | 0.7 | 0.3
C[C@@H]1CCCCO[C@@H](CN(C)C(=O)C2CCCCC2)[C@@H](C)CN([C@H](C)CO)C(=O)c2cc(NS(=O)(=O)c3ccccc3)ccc2O1 | i | -5 | -7 | 3.1 | -5.0
Cc1noc(C)c1NC(=O)N(C)C[C@@H]1Oc2c(NC(=O)c3ccc(-c4nccs4)cc3)cccc2C(=O)N([C@@H](C)CO)C[C@@H]1C | i | -1 | -3 | 2.9 | -3.6
CC(C)C#Cc1ccc2c(c1)O[C@@H](CN(C)C(=O)c1ccccn1)[C@H](C)CN([C@@H](C)CO)S2(=O)=O | i | -3 | -7 | -3.6 | 0.3
COc1ccccc1N(C)S(=O)(=O)c1ccc(C(=O)NCC(c2ccco2)N2CCCCC2)cc1 (stereo not given) | i | -5 | -13 | 2.2 | 4.1
C[C@H]1CN([C@@H](C)CO)C(=O)c2cccc(NC(=O)C3CCOCC3)c2O[C@@H]1CN(C)S(=O)(=O)c1cn(C)cn1 | i | 1 | 7 | -0.1 | -3.1
COc1ccccc1NS(=O)(=O)c1ccc(C)c(NS(=O)(=O)c2cc(NC(C)=O)ccc2OC)c1 | i | -7 | -4 | 1.0 | 0.3
COc1ccc(S(=O)(=O)Nc2ccc3c(c2)C(=O)N([C@@H](C)CO)C[C@H](C)[C@H](CN(C)S(=O)(=O)c2ccc(C)cc2)OCCCC[C@@H](C)O3)cc1 | i | -1 | -2 | -2.1 | 1.2
C[C@H](CO)N1C[C@H](C)[C@@H](CN(C)S(=O)(=O)c2ccccc2)Oc2ccc(NC(=O)Nc3cccc4ccccc34)cc2C1=O | i | 0 | 5 | -1.5 | 0.5
COC(=O)[C@@H]1[C@@H](CO)[C@@H]2Cn3c(ccc(-c4ccccc4)c3=O)[C@@H]2N1CCc1ccccc1 | i | -10 | -21 | 8.9 | 2.1
O=C(COC(=O)c1ccc(Cl)nc1)Nc1ccc(N2CCOCC2)cc1 | i | 6 | 15 | -0.5 | -2.5
C[C@@H]1CN([C@@H](C)CO)C(=O)c2cc(C#CC3CCCCC3)cnc2O[C@@H]1CN(C)Cc1ccncc1 | i | 6 | -6 | 9.9 | 8.0
CO[C@@H]1CN(C)C(=O)c2cc(NC(=O)c3cnccn3)ccc2OC[C@H](C)N(C)C[C@@H]1C | i | 3 | 1 | -2.3 | -2.0
C[C@@H]1CCCCO[C@@H](CN(C)C(=O)Cc2ccccc2)[C@@H](C)CN([C@H](C)CO)C(=O)c2cc(NC(=O)CCCN(C)C)ccc2O1 | i | 3 | 0 | 1.8 | -0.7
O=C1OCCC1=COCCCCCOC=C1CCOC1=O | i | -2 | -2 | -1.8 | -0.3
Cc1cc(C(=O)Nc2cccc3c2O[C@@H](CN(C)C(=O)Nc2cccc4ccccc24)[C@@H](C)CN([C@@H](C)CO)C3=O)n(C)n1 | i | -9 | -10 | 1.5 | 0.4
CO[C@H]1CN(C)C(=O)c2ccc(NC(=O)C3CCCC3)cc2OC[C@H](C)N(C)C[C@H]1C | i | 2 | 2 | -0.9 | -1.7
C[C@@H]1CN([C@H](C)CO)C(=O)c2cccc(NC(=O)Nc3ccc(C(F)(F)F)cc3)c2O[C@@H]1CN(C)Cc1ccncc1 | i | 0 | -3 | -2.7 | 6.5
COc1cc(C(C)=O)ccc1OCC(=O)N1CCCC1c1ccc2c(c1)OCCCO2 (stereo not given) | i | -3 | -12 | 1.7 | -0.2
COCC#Cc1ccc([C@@H]2[C@H](CO)N3CCCCN(C(=O)NC4CCCC4)C[C@@H]23)cc1 | i | 7 | 23 | 1.1 | 3.2
COc1ccc(NC(=O)N[C@H]2CC[C@@H](CCn3cc(-c4ccc(OC)cc4)nn3)O[C@H]2CO)cc1 | i | -5 | -5 | -1.4 | 1.0
O=C(NCc1ccccc1)[C@H]1CCCN1C(=O)[C@H]1CCCN1C(=O)C1CCCCC1 | i | 8 | -1 | -0.5 | -0.4
C[C@H]1CN([C@@H](C)CO)C(=O)c2cc(NC(=O)CCCN(C)C)ccc2O[C@@H]1CN(C)C(=O)Nc1ccc2c(c1)OCO2 | i | -2 | 3 | -2.8 | -2.0
C[C@@H]1CN([C@@H](C)CO)C(=O)c2cc(-c3ccc(C#N)cc3)cnc2O[C@@H]1CN(C)CC1CCOCC1 | i | 2 | -1 | -1.1 | -2.5
C[C@H](CO)N1C[C@H](C)[C@H](CN(C)C(=O)Nc2cccc3ccccc23)Oc2ncc(-c3cccc(C(F)(F)F)c3)cc2C1=O | i | -3 | -2 | 6.5 | 6.0
CN(C)c1ccc2c(c1)[C@H]1C[C@@H](CC(=O)NCc3ccc4c(c3)OCO4)O[C@@H](CO)[C@H]1O2 | i | 0 | 0 | -1.9 | -0.4
Cc1noc(C)c1S(=O)(=O)Nc1ccc2c(c1)C(=O)N([C@@H](C)CO)C[C@@H](C)[C@H](CN(C)S(=O)(=O)c1ccccc1)OCCCC[C@H](C)O2 | i | 0 | -6 | 0.9 | -1.1
O=C(CNC(=O)C1COc2ccccc2O1)Nc1cc(Cl)ccc1Cl (stereo not given) | i | 6 | 5 | 1.2 | -1.2
C[C@H](O)[C@@H]1C(=O)N2CCc3ccc(-c4ccccc4)cc3[C@@H]2C[C@@H]1N(C)C(=O)c1ccco1 | i | 0 | -7 | 4.1 | 2.6
CC(=O)NC[C@@H]1[C@@H](c2ccc(-c3cccnc3)cc2)[C@@H](CO)N1C(=O)C1CC1 | i | 1 | 2 | 0.6 | -0.1
Cc1ccccc1-c1cc2nc(Oc3cccc4ccccc34)n(C)c(=O)c2s1 | i | 7 | 31 | -0.3 | -12

Some of the compounds tested (hit frequency here may not be typical).
